NPYLR7 agonist – agonists of mosquito NPYLR7 receptor, primary screen, cell-based, Aedes aegypti, calcium fluorescence, mosquito biting behavior; HEK293T NPYLR7/Galpha15, GCaMP6s calcium fluorescence; activation, % at 10 µM; 270,000 compounds, 0.15% hits; in the data active = activation above about 40%;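 note: 0% = vehicle and 100% = reference agonist at the receptor; some compounds past the cut are filed as inactive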
NPYLR7 agonist max-min – recorded beside NPYLR7 agonist, whose call it bears; activation, %; measured here: Max-Min RFU normalised activation; some inactives read as strong as hits;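 span of the calcium signal over five minutes; 0% = vehicle and 100% = native peptide agonist; compound fluorescence can raise it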
Starred values were filed as active, the others as inactive; & = joins results of further samples. Not all compounds are listed; count on the stated rates, not on these rows.

Values run as follows: NPYLR7 agonist | NPYLR7 agonist max-min
CC1(Cc2ccccc2OC(F)(F)F)C(=O)Nc2cc(F)ccc21 (stereo not drawn)
    -2 | 3
O=C(NCc1ccc2c(c1)CCCO2)c1ccc(C2CCNC2)cc1 (stereo not drawn)
    4 | 1
Cn1c(N)nc2c(ncn2C2OC(CO)C(O)C2O)c1=O (stereo not drawn)
    -3 | 21
Cc1nc(C)c(CN2CCC(C(=O)Nc3cccc(-c4cscn4)c3)CC2)nc1C
    -3 | -5
O=C(CC1CCC(=O)N1)NCc1cccnc1N1CCN(c2ccccn2)CC1 (stereo not drawn)
    0 | -4
CCN1CCN(Cc2nc(-c3ccc(C(=O)OC)cc3)oc2C)[C@@H](C)C1=O
    -10 | -15
Cc1nc(CCNC(=O)c2cc(Cl)ccc2F)cs1
    -2 | -2
O=S(=O)(NCc1ccc(CN2CCOCC2)cc1)c1ccc(Br)cc1Cl
    9 | 10
O=C(c1cnc(CN2CCCC2)s1)N1CCCC(c2ccn[nH]2)C1 (stereo not drawn)
    2 | 0
O=C(NNS(=O)(=O)c1cccc(F)c1)c1cc2c(s1)CCCC2
    2 | 0
Cc1cc(NC(=O)c2ccc(S(=O)(=O)N(C)C)cc2)n(-c2nc3c(c(=O)[nH]2)CCC3)n1
    7 | 0
COc1ccc(C(=O)N(CC(=O)N(CCc2c[nH]c3ccccc23)Cc2ccc(C(F)(F)F)cc2)C2CC2)cc1
    6 | 13
Cc1cc(C)cc(N2CCCn3c2nc2c3c(=O)n(CC(N)=O)c(=O)n2C)c1
    8 | 9
COc1ccccc1CCNC(=O)c1ccccc1N1CCC(NC(=O)C2CCCC2)CC1
    -5 | -1
O=C1CC(c2cccc3[nH]ccc23)c2cn[nH]c2N1 (stereo not drawn)
    -8 | -14
COc1cccc(CN2CCc3nnc(C(C)NC(=O)CCc4ccccc4)n3CC2)c1O (stereo not drawn)
    17 | 8
O=C(NC1CCN(C2CC2)C1)c1ccnc(-n2cncn2)c1 (stereo not drawn)
    -13 | -12
CCN(CC)c1onc(-c2ccc(F)cc2)c1CN(CC1CC1)C(=O)c1cccc(OC)c1
    -3 | 7
CCCCCCCC(=O)N1CCC2(CC1)C(=O)N(CC(=O)N1CCC(Cc3ccccc3)CC1)CN2c1ccccc1
    28 | 25
CCc1ccc(CN(C)S(=O)(=O)c2ccc(OC)cc2)cc1
    -2 | -2
CN(C)C(CNc1nc2ccccc2o1)Cc1ccccc1 (stereo not drawn)
    5 | 4
Cc1cccc(Cn2nc(-c3ccc(Br)cc3)ccc2=O)c1
    13 | 5
COc1ccccc1CCNC(=O)CN1CN(c2ccccc2)C2(CCN(C(=O)c3ccccc3Br)CC2)C1=O
    22 | 23
CCOC(=O)c1nc2ccc(C)cc2c2oc(C)cc12
    7 | 7
CCc1cc(Oc2ccc(C(C)=O)cc2)nc(SCc2c(F)cccc2F)n1
    -2 | 3
CCCCC(O)CN(Cc1c(C)nn(-c2ccccc2)c1Oc1ccccc1OC)CC1CCCO1 (stereo not drawn)
    10 | 12
CCn1nnc2c(SCC(=O)NC(C)C)ncnc21
    -1 | 26
CCCCc1nc(N2CCN(C(=O)Nc3ccccc3C(F)(F)F)CC2)c2c(-c3ccc4ccccc4c3)noc2n1
    3 | -1
CC(=O)n1cc(/C=C2/C(=O)NC(=S)N(Cc3ccccc3)C2=O)c2ccccc21
    0 | -2
O=C(NCCN1CCCC(c2ccccc2)C1)c1ncc[nH]1 (stereo not drawn)
    28 | 22
Cc1nn(-c2cccc(F)c2)c(C)c1C(=O)O
    6 | 12
Cc1cc(Oc2cccc(Cl)c2)nc(SCc2ccccc2Cl)n1
    10 | 21
O=C(CCCCN1Cc2ccccc2C1=O)NC1CCc2ccccc21 (stereo not drawn)
    -3 | -3
CCOC(CNC(=O)c1cn(C)cc2c(=O)n(-c3ccccc3)nc1-2)OCC
    3 | 3
CCCCc1nnc(NC(=O)c2ccc(C)s2)s1
    7 | 8
Cc1[nH]c(=S)sc1CC(=O)Nc1ccc2ncccc2c1
    8 | 7
Cn1cccc1CN1CCC(C(=O)NC(c2ccccc2)c2ccsc2)CC1 (stereo not drawn)
    6 | 3
COc1cccc(C(=O)CN2C(=O)NC3(CCCc4ccccc43)C2=O)c1 (stereo not drawn)
    7 | 2
CCOC(=O)N1CCN(C(=O)CSc2nc3ccccc3c(=O)n2C2CCCC2)CC1
    -7 | 18
CCOC(=O)C1CCN(C(=O)c2coc(CN(Cc3cccc(Oc4ccccc4)c3)Cc3ccc4c(c3)OCO4)n2)CC1
    -8 | 12
O=C(C=CNC12CC3CC(CC(C3)C1)C2)C(F)(F)F
    0 | -2
Cc1ccc(F)c(CNC(=O)Cn2nnnc2CN2CCCC2)c1F
    -2 | -3
CC(NC(=O)c1ccccc1N(C)C(=O)C1CC1)c1ccccc1Br (stereo not drawn)
    -6 | -6
NC(=O)c1ccc(CNc2ccc3cccc(Br)c3n2)o1
    2 | 4
COc1ccc(-c2ccccc2C(=O)NC(C)C)cc1F
    0 | 1
CNC(=O)c1ccnc(N2CCC3(CCNCC3)C2)c1
    1 | -5
CSc1nnc(SCc2ccc(C(=O)N3C4CCC3CC(Oc3cccc(C(F)(F)F)c3)C4)cc2)s1 (stereo not drawn)
    6 | -6
COc1ccc(C(=O)N2CCC3(CC2)C(=O)N(CC(=O)NCC2CCCO2)CN3c2ccccc2)c(OC)c1 (stereo not drawn)
    -2 | 11
COCc1c(C(=O)N2CCCC(C(=O)c3ccccc3)C2)noc1C (stereo not drawn)
    21 | 19
CCOC(=O)C1C(=O)C=C(C=Cc2ccco2)CC1c1ccccc1 (stereo not drawn)
    11 | 15
Cn1cc(C(NC(=O)Cn2ncc3ccccc32)C(C)(C)C)cn1 (stereo not drawn)
    4 | 6
CCOC(=O)c1cc(-c2ccccc2)sc1NC(=O)CC(=O)OC
    -8 | -11
O=c1[nH]c(CNCc2ccccc2)nc2scc(-c3ccccc3F)c12
    32 | 36
CCc1nc(N2CCN(C(=O)Nc3ccc(C(C)C)cc3)CC2)c2ccc(Cl)cc2n1
    9 | 9
COc1ccc(OC)c(-n2c(=S)[nH]c3cc(C(=O)N4CCC(C(N)=O)CC4)ccc3c2=O)c1
    -4 | -7
O=C(c1ccc(O)cn1)N1CCCC(N2CCCC2=O)C1 (stereo not drawn)
    -2 | -2
CN1CCN2CCN(Cc3cc(=O)n4c5c(cccc35)CCC4)CC2C1 (stereo not drawn)
    1 | 19
O=[N+]([O-])c1ccc(Cl)c(CN2CCCn3cccc3C2c2cccc(F)c2)c1 (stereo not drawn)
    -10 | -1
COCCN(CC(=O)N(CCc1ccc(OC)c(OC)c1)Cc1ccc(C)s1)C(=O)Nc1ccc(Br)cc1
    -4 | -9
CN(Cc1ccccc1)C(NC(=O)c1ccccc1)C(Cl)(Cl)Cl (stereo not drawn)
    -8 | -13

The results go on.
Values run as follows: NPYLR7 agonist | NPYLR7 agonist max-min
C#CC(C)(CC)NC(=O)Cc1cccs1 (stereo not drawn)
    -10 | -9
COc1ccc(NC(=O)C2CCN(C(=O)[C@H](C)NC(=O)Nc3cc(F)cc(C(F)(F)F)c3)CC2)cc1
    -12 | -7
CCO[C@H]1COC[C@@H]1NC(=O)C(=O)N(C)c1ccccc1
    4 | 3
Cc1ccnc(SCc2cc(=O)c(OC(=O)c3ccc(C(F)(F)F)cc3)co2)n1
    -16 | -10
CC(C)(C)c1ccc(S(=O)(=O)NCc2ccc(C(=O)Nc3ccccc3F)cc2)cc1
    -3 | -7
COc1cc2nc(N3CCCN(C)CC3)nc(NC3CCN(Cc4ccccc4)CC3)c2cc1OC
    13 | 0
Cc1cc(-n2c(C)cc(C(=O)CSc3nnc(-c4cccs4)o3)c2C)no1
    6 | 10
Cc1cc(N(C)C)nc(Nc2ccc(NC(=O)C(C)Oc3ccccc3)cc2)n1 (stereo not drawn)
    8 | 2
CCOc1ccc(C(=O)Oc2coc(CSc3ncccn3)cc2=O)cc1
    -12 | -4
CCOc1ccccc1CN1CCNC(=O)C1CC(=O)NCC(C)(C)CN(C)C (stereo not drawn)
    12 | 9
O=C(NC1CCCN(C2CCCCCC2)C1)c1ccncc1 (stereo not drawn)
    2 | -1
CCOc1ccc(-n2c(=O)c3ccccc3n(C(C)C(=O)NC3CC3)c2=O)cc1 (stereo not drawn)
    -13 | -10
CCCOc1ccc(-c2c(=O)n(OC)c3ccccc3[n+]2[O-])cc1
    5 | 0
CCOC(=O)c1sc(=S)n(C)c1NC(=O)c1ccccc1
    3 | 0
CCN(CC1CCCO1)c1nc2cc(C)nn2c2ccccc12 (stereo not drawn)
    0 | -1
Cc1cc(NCCN(C)C)n2c(nc3ccccc32)c1C#N
    0 | -3
CCOC(=O)N1CCN(c2nc(Nc3ccc(OC)cc3)c3cn[nH]c3n2)CC1
    -1 | -2
Fc1ccccc1Oc1cc(N2CCCCC2)ncn1
    -7 | -2
Clc1ccc(C=Cc2nc3ccccc3o2)cc1Cl
    3 | 5
COc1ccc(Br)c(C(=O)Nc2cc(C(=O)Nc3cccc(C(F)(F)F)c3)ccc2N2CC3CC(C2)c2cccc(=O)n2C3)c1 (stereo not drawn)
    -8 | -2
O=C(Nc1ccc(F)cc1F)N1CCC(OCc2ccccc2)CC1
    11 | 7
CC(C)(CNC(=O)OC(C)(C)C)NC(=O)/C=C/c1cscn1
    17 | 15
CC1ON=C(c2cccc(Cl)c2)N(Cc2ccncc2)C1=O (stereo not drawn)
    8 | 3
O=C(NC1CCCC[C@H]1N(Cc1ccc(Cl)cc1)C(=O)c1ccccc1)C1CCCN(C(=O)/C=C/c2ccccc2)C1 (stereo partly drawn)
    0 | -1
COc1ccc(CN2CCN3CCN(C)C(=O)C3C2)cc1F (stereo not drawn)
    3 | 0
Cc1ccc(-c2cc(C(=O)N(C)CCc3cnn(C)c3)cc(S(=O)(=O)N3CCOCC3)c2)s1
    12 | 4
Cc1nc(SCc2cccc(C#N)c2)n(C2CCCC2)c1C
    -2 | -2
COC(=O)c1cnc(Nc2nc(C(N)Cc3ccc(Cl)cc3)cs2)nc1C(F)(F)F (stereo not drawn)
    -6 | -13
CCOC(=O)Cc1nc2sc(C)c(C)c2c(=O)[nH]1
    3 | 2
Oc1oc(-c2ccccc2Br)nc1C=Nc1ccccc1
    65* | 60*

A run of entries from the list above, as a working copy:
Values run as follows: NPYLR7 agonist | NPYLR7 agonist max-min
CCOc1ccc(-n2c(=O)c3ccccc3n(C(C)C(=O)NC3CC3)c2=O)cc1 (stereo not drawn)
    -13 | -10
CCCOc1ccc(-c2c(=O)n(OC)c3ccccc3[n+]2[O-])cc1
    5 | 0
CCOC(=O)c1sc(=S)n(C)c1NC(=O)c1ccccc1
    3 | 0
CCN(CC1CCCO1)c1nc2cc(C)nn2c2ccccc12 (stereo not drawn)
    0 | -1
Cc1cc(NCCN(C)C)n2c(nc3ccccc32)c1C#N
    0 | -3
CCOC(=O)N1CCN(c2nc(Nc3ccc(OC)cc3)c3cn[nH]c3n2)CC1
    -1 | -2
Fc1ccccc1Oc1cc(N2CCCCC2)ncn1
    -7 | -2
Clc1ccc(C=Cc2nc3ccccc3o2)cc1Cl
    3 | 5
COc1ccc(Br)c(C(=O)Nc2cc(C(=O)Nc3cccc(C(F)(F)F)c3)ccc2N2CC3CC(C2)c2cccc(=O)n2C3)c1 (stereo not drawn)
    -8 | -2
O=C(Nc1ccc(F)cc1F)N1CCC(OCc2ccccc2)CC1
    11 | 7
CC(C)(CNC(=O)OC(C)(C)C)NC(=O)/C=C/c1cscn1
    17 | 15
CC1ON=C(c2cccc(Cl)c2)N(Cc2ccncc2)C1=O (stereo not drawn)
    8 | 3
O=C(NC1CCCC[C@H]1N(Cc1ccc(Cl)cc1)C(=O)c1ccccc1)C1CCCN(C(=O)/C=C/c2ccccc2)C1 (stereo partly drawn)
    0 | -1
COc1ccc(CN2CCN3CCN(C)C(=O)C3C2)cc1F (stereo not drawn)
    3 | 0
Cc1ccc(-c2cc(C(=O)N(C)CCc3cnn(C)c3)cc(S(=O)(=O)N3CCOCC3)c2)s1
    12 | 4
Cc1nc(SCc2cccc(C#N)c2)n(C2CCCC2)c1C
    -2 | -2
COC(=O)c1cnc(Nc2nc(C(N)Cc3ccc(Cl)cc3)cs2)nc1C(F)(F)F (stereo not drawn)
    -6 | -13
CCOC(=O)Cc1nc2sc(C)c(C)c2c(=O)[nH]1
    3 | 2
Oc1oc(-c2ccccc2Br)nc1C=Nc1ccccc1
    65* | 60*

Following part:
Values run as follows: NPYLR7 agonist | NPYLR7 agonist max-min
CCCCC(CC)CNC(=O)c1ccc(-n2nc(C(=O)OCC)cc2-c2ccc(C)c(C)c2)cc1 (stereo not drawn)
    -2 | 0
CCc1nc(CN(C)c2nc(C)cc(C)c2C#N)cs1
    9 | 7
CC(=O)NC(=Nc1nc(C)cc(C)n1)Nc1cc(C)cc(C)c1
    -7 | -14
O=C(CSc1ccccn1)NCc1cccnc1N1CCOCC1
    6 | 4
CC(C)NC(=O)[C@@]1(OCc2ccccc2)CC(OCc2ccc(C(F)(F)F)cc2)[C@@H]2OC(C)(C)O[C@@H]2C1 (stereo partly drawn)
    0 | 6
CC(=O)C1=C(c2ccc(C)c(C)c2)N(C(C)=O)n2c(nnc2-c2ccc(Cl)cc2)S1
    4 | 0
CCCc1cc(C(=O)N2CCC(N3CCCC(C(=O)N4CCCC4)C3)CC2)ccn1 (stereo not drawn)
    -2 | -7
O=S(=O)(Nc1ccc(OC(F)F)c(Cl)c1)c1ccc(F)c(F)c1
    5 | 5
COc1ccc(S(=O)(=O)N(C)CCCN2c3ccccc3CCc3ccccc32)cc1OC
    -11 | -16
Cc1nn(-c2ccccc2)c(Cl)c1C(=O)N1CCC(C(N)=O)CC1
    -18 | -22
COc1ccc(S(=O)(=O)N2CCNCC2)cc1OC
    3&8 | 13&4
O=C(Cn1nc2c(c1NC(=O)c1c[nH]c3ccccc13)CSC2)NCc1ccccc1
    -5 | 2
CCn1c(SC(C)C(=O)Nc2ccc(C)c(F)c2)nnc1-c1ccco1 (stereo not drawn)
    10 | -1

Screens from PubChem BioAssay.
